# FPRL1 ligand = ligands of human FPRL1, also counter-screen for FPR ligands; P25090; FPRL1-expressing cells, fluorescent ligand binding inhibition, flow cytometry; inhibition, %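 (tested at 6.7 µM)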; 24,000 compounds, 0.3% hits; AID 441;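 further: 0% = buffer alone and 100% = receptor blocker peptide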
# FPR binder = ligands of human FPR, also counter-screen for FPRL1 ligands | 24,000 compounds, 0.74% hits | FPR-expressing cells, fluorescent ligand binding, flow cytometry | P21462 | inhibition, %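 (tested at 6.7 µM)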 | AID 440;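 further: 0% = buffer wells and 100% = receptor blocker peptide wells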
# Starred values were filed as active, the others as inactive; x = not tested or not shown.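 How the source made its calls: active means mean above 30%; inconclusive means self-fluorescent; inactive means the rest.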
SMILES,FPRL1 ligand,FPR binder
COc1cccc(-c2cc(C(F)(F)F)nc(N3CCN(c4ccccc4)CC3)n2)c1,x,0
COc1ccccc1-c1cc(C(F)(F)F)nc(N2CCN(c3ccccc3)CC2)n1,x,-3
COc1cc2c(C(=O)N3CCN(C4CCCCC4)CC3)cn(CC(C)C)c(=O)c2cc1OC,7,x

# In the list so far, these have a halogen.
SMILES,FPRL1 ligand,FPR binder
COc1cccc(-c2cc(C(F)(F)F)nc(N3CCN(c4ccccc4)CC3)n2)c1,x,0
COc1ccccc1-c1cc(C(F)(F)F)nc(N2CCN(c3ccccc3)CC2)n1,x,-3

# The list is partial (hit frequency here may not be typical).
